VDR inhibitor – inhibitors of human vitamin D receptor; P11473; VDR-SRC2-3 peptide fluorescence polarization, 2 h; Potency, µM, for inactives: max response, negative = inhibition, most hits filed as inhibitors; 400,000 compounds, 0.93% hits; active = well fitted inhibition curve with a large enough effect; inconclusive = small, poorly fitted or top-dose-only effect, or another doubt; inactive = no such curve, though single readings can be large or run the other way; note: series mostly up to about 120 µM
Target sequence (P11473 whole entry, looked up): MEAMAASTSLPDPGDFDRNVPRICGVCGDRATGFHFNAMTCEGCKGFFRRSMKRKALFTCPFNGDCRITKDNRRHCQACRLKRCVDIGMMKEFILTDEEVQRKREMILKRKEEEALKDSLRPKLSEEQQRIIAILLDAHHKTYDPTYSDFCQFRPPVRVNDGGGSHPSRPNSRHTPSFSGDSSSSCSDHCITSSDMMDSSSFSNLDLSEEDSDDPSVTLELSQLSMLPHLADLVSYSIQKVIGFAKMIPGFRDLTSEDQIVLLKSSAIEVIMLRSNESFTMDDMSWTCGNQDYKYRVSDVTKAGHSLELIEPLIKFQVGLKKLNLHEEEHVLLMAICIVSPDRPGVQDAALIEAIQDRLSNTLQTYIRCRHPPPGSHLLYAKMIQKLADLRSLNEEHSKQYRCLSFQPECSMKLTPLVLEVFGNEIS
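Two reagent solutions held at 4 deg C in the dark were dispensed, compounds pinned at 23 nl, and the mixture incubated 2 h at room temperature. Read-out: fluorescence polarization of VDR–SRC2-3 peptide binding.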
The depositor's hits bear a star; ? = inconclusive. % is set by controls: 0 for no effect and ±100 for the full control effect; potency is the fitted concentration of half-maximal effect.

# | Compound | VDR inhibitor
1 | COc1ccc(C(CNC(=O)Cc2ccc(-c3ccccc3)cc2)N(C)C)cc1 (centres undefined) | 10%
2 | COc1ccc(Cl)cc1NC(=O)c1nnn(CC(=O)Nc2ccc(OC)c(OC)c2)c1N | -14%
3 | COCCNC(=O)c1ccc2c(c1)N(Cc1ccc(C(F)(F)F)cc1)C(=O)c1ccccc1S2 | -6%
4 | Cc1ccc(Cn2c(CO)cnc2SCc2cccc(F)c2)cc1 | 13%
5 | O=C(NCC1CCCO1)C1c2ccccc2C(=O)N1Cc1ccc2c(c1)OCO2 (centres undefined) | 16%
6 | O=C(O)CNC(=S)N(Cc1ccco1)Cc1ccccc1Cl | 0%
7 | c1ccc(CCNC2=NCCS2)cc1 | 1%
8 | Cn1c(C(=O)NC2CCCC2)cc2c(=O)n(C)c3ccccc3c21 | ?
9 | COc1ccc(NC(=O)C(=O)NCCN2CCN(C(=O)c3cccc(Br)c3)CC2)cc1 | -22%
10 | Cc1ccc(F)c(NC(=O)Nc2ccc3snnc3c2)c1 | 5%
11 | O=C(COC(=O)c1cc2ccccc2oc1=O)Nc1cccc(S(=O)(=O)N2CCCCCC2)c1 | -14%
12 | O=C(NNC(=O)C1CCCCC1)c1ccco1 | -4%
13 | OC(COCc1ccccc1)CN1CCCCC1 (centres undefined) | 14%
14 | CCOC(=O)c1sc(NC(=O)COC(=O)CNC(=O)C2CCCCC2)c(C(=O)OCC)c1C | -3%
15 | Cc1cc([N+](=O)[O-])nn1CC(=O)N1CCN(Cc2ccccc2)CC1 | -1%
16 | OCCN(Cc1ccccc1)Cc1ccc(Cl)cc1 | 0%
17 | CSCC[C@H](NC(=O)[C@H](CCC(N)=O)NC(=O)[C@H](CCCCN)NC(=O)[C@H](CCCNC(=N)N)NC(=O)[C@H](Cc1ccc(O)cc1)NC(=O)[C@H](CCCNC(=N)N)NC(=O)[C@H](CO)NC(=O)[C@H](Cc1ccc(O)cc1)NC(=O)[C@H](CO)NC(=O)[C@H](CC(=O)O)NC(=O)[C@@H](NC(=O)[C@@H](N)Cc1ccccc1)[C@@H](C)O)C(=O)N[C@@H](C)C(=O)N[C@H](C(=O)N[C@@H](CCCCN)C(=O)N[C@@H](CCCCN)C(=O)N[C@@H](Cc1ccc(O)cc1)C(=O)N[C@@H](CC(C)C)C(=O)N[C@@H](C)C(=O)N[C@@H](C)C(=O)N[C@H](C(=O)N[C@@H](CC(C)C)C(=O)NCC(=O)N[C@@H](CCCCN)C(=O)N[C@@H](CCCNC(=N)N)C(=O)N[C@@H](Cc1ccc(O)cc1)C(=O)N[C@@H](CCCCN)C(=O)N[C@@H](CCC(N)=O)C(=O)N[C@@H](CCCNC(=N)N)C(=O)N[C@H](C(=O)N[C@@H](CCCCN)C(=O)N[C@@H](CC(N)=O)C(=O)N[C@@H](CCCCN)C(N)=O)C(C)C)C(C)C)C(C)C | 20%
18 | CCc1ccc2[nH]c(=O)c(CN(Cc3ccco3)Cc3nnnn3Cc3ccco3)cc2c1 | -24%
19 | CC1=NN(S(=O)(=O)c2ccc(C)cc2)C(=O)c2ccccc2O1 | 8%
20 | Cc1ccc2c(c1)N(CCCC(=O)Nc1cccc(C(F)(F)F)c1)C(=O)CO2 | ?
21 | CCOc1ncccc1C(=O)OCC(=O)c1c[nH]c2ccccc12 | 14%
22 | CCOc1ccc(NC(=O)Nc2ccccc2C(N)=O)cc1 | 8%
23 | CC(=O)c1c(OC(=O)c2ccccc2Br)ccc2c(C)cc(=O)oc12 | -23%
24 | O=C(COC(=O)CNC(=O)c1ccccc1)NC1CCCC1 | -1%
25 | COC(=O)C1=C(N)Oc2cc(C)n(Cc3cccnc3)c(=O)c2C1c1ccccc1OC (centres undefined) | -3%
26 | Cc1ccc(C2(C)NC(=O)N(CC(=O)NC(C)c3ccccc3)C2=O)cc1 (centres undefined) | 13%
27 | C[C@@H](O)Cc1cn(CC(=O)NCCCCCCCCCCC(=O)N2CCNCC2)nn1 | 3%
28 | COc1ccc(NS(=O)(=O)c2cccc(C(=O)NCC(c3ccc(OC)cc3)N3CCCC3)c2)cc1 (centres undefined) | -22%
29 | O=C(c1ccccc1F)N1CCN(S(=O)(=O)c2ccc3ccccc3c2)CC1 | 5%
30 | Cc1ccc(N2C(=O)CC(Sc3nccc(C)n3)C2=O)cc1 (centres undefined) | 4%
31 | Cc1c(NC(=O)Cn2ccc([N+](=O)[O-])n2)c(=O)n(-c2ccccc2)n1C | -3%
32 | Cc1ccc(CC2SC(=Nc3ccccc3)N(c3ccccc3)C2=O)cc1 (centres undefined) | 10%
33 | O=C(CN1C(=O)CCSc2ccc(S(=O)(=O)N3CCCC3)cc21)Nc1cccc(F)c1 | 14%
34 | CC(C)(C)C(=O)N1CCN(c2nc3ccc(Br)cc3s2)CC1 | -20%
35 | CC(/C=N/n1c(-c2ccc(C)cc2)n[nH]c1=S)=C\c1ccco1 | ?
36 | O=C(COc1ccccc1F)Nc1nnc(-c2ccncc2)s1 | 8%
37 | CCOC(=O)N1CCc2c(sc(NC(=O)C3=COCCO3)c2C(N)=O)C1 | -9%
38 | COc1ccc(C(=O)OCC(=O)NC(C)CCc2ccccc2)cc1OC (centres undefined) | 5%
39 | CCCn1nnc(NC(=O)Cc2ccc(Cl)cc2)n1 | 8%
40 | O=C(CSc1cccc[n+]1[O-])Nc1cc([N+](=O)[O-])ccc1Cl | -7%
41 | Cc1ccc(-c2cnc3c(Cl)c(C)nn3c2)cc1 | -17%
42 | Cc1ccc(-c2nc(=Nc3ccccc3)sn2-c2ccccc2)cc1 | -4%
43 | COc1ccc(-n2nnnc2SCC(=O)Nc2ccccc2F)cc1 | -15%
44 | COc1ccc(N(Cc2cc(=O)[nH]c3ccccc23)C(=O)c2ccco2)cc1 | 6%
45 | COc1ccc(Cl)cc1NC(=O)COC(=O)c1cc(C)oc1C | 5%
46 | CCOC(=O)N/N=C\C=C\c1ccco1 | -8%
47 | COc1cc2c(cc1OC)C(c1ccco1)CC(=O)N2 (centres undefined) | -18%
48 | CCc1c(C)sc(NC(=S)N2CC(C)OC(C)C2)c1C(=O)OC (centres undefined) | -13%
49 | CCOc1ccc2cc(C3CC(c4ccco4)=NN3S(C)(=O)=O)c(Cl)nc2c1 (centres undefined) | -18%
50 | CCNC(=O)CC1C(=O)N(c2ccc(C)cc2)C(=O)N1Cc1ccccn1 (centres undefined) | -5%
51 | Cc1ccc(CCNC(=O)C2CCCN(C(=O)c3cc4sccc4n3C)C2)cc1 (centres undefined) | -3%
52 | COc1ccc(CC(=O)Nc2ccc(-c3nc4ccccc4s3)cc2Cl)cc1OC | 3%
53 | Cn1c(=O)c2c(SCC(=O)Nc3ccccc3F)nc(-c3ccccc3F)nc2n(C)c1=O | -16%
54 | Cc1occc1C(=O)NCc1ccc2c(c1)OCO2 | 16%
55 | CN(C)S(=O)(=O)c1ccc(N2CCCC2)c(C(=O)NC2(C)CCS(=O)(=O)C2)c1 (centres undefined) | -21%
56 | Cc1ccc(S(=O)(=O)NCC(=O)N(CC(=O)NCc2ccco2)Cc2cccs2)cc1 | -11%
57 | CCCS(=O)(=O)N1CCC(C(=O)NCc2ccc(F)cc2)CC1 | 5%
58 | CCc1n[nH]c(=S)n1/N=C/C(C)=C\c1ccccc1 | -25%
59 | COc1cc(OC)cc(C(=O)NCC(=O)OCC(=O)NC(C)CCc2ccccc2)c1 (centres undefined) | 25%
60 | O=C(O)C1C2CCC(C2)C1C(=O)Nc1ccccc1 (centres undefined) | -14%

Fetched one by one from the list above, 2 records:
# | Compound | VDR inhibitor
45 | COc1ccc(Cl)cc1NC(=O)COC(=O)c1cc(C)oc1C | 5%
48 | CCc1c(C)sc(NC(=S)N2CC(C)OC(C)C2)c1C(=O)OC (centres undefined) | -13%

The list continues.
# | Compound | VDR inhibitor
61 | COc1ccc(NC(=S)Nc2cc(-c3ccccc3)[nH]n2)cc1Cl | -30%
62 | Cc1ccc(N2C(=O)C(CC(=O)Nc3cccc(F)c3)N(CCc3ccccc3F)C2=O)cc1 (centres undefined) | -17%
63 | Cc1ccc(CNC(=O)c2ccc(OCC(C)C)cc2)n1C | 25%
64 | CCN(CC(=O)NCc1ccc(F)cc1)Cc1cc(=O)n2ccsc2n1 | 14%
65 | C#CCOCCOCCOCCNc1nc(N2CCN(C(=O)[C@H](C(C)C)n3cc(CCO)nn3)CC2)nc(N2CCN(C(=O)[C@H](Cc3ccc(O)cc3)n3cc(CCO)nn3)CC2)n1 | -18%
66 | Cc1cc(Cl)ccc1OCC(=O)Nc1cccc(S(=O)(=O)NC2=NCCCCC2)c1 | 4%
67 | COc1cc(/C=N/NC(=O)c2[nH]nc3c2CCc2ccccc2-3)ccc1O | 3%
68 | COC(=O)Cc1cnc(NC(=O)CSc2nc(C(C)C)cc(=O)[nH]2)s1 | -7%
69 | NNC(=O)COc1ccccc1[N+](=O)[O-] | 4%
70 | O=C(CSc1nc2ccccc2c(=O)n1CC1CCCO1)N1CCN(c2ccccc2)CC1 (centres undefined) | 5%
71 | Cc1nc2cc(C(=O)O)ccc2n1-c1ccccc1 | 13%
72 | Cc1cc(NC(=O)c2ccc(S(=O)(=O)N(C)C)cc2)no1 | 3%
73 | CCCC1(CCC)NC(=O)N(CC(=O)Nc2ccc(Cl)c(S(=O)(=O)N3CCOCC3)c2)C1=O | -4%
74 | Cc1nc2nc(SCC(=O)N3CCOCC3)nn2c(C)c1Cc1ccccc1 | -1%
75 | CC(C)Cn1c(N)c(C(=O)COC(=O)CCc2nc3ccccc3c(=O)[nH]2)c(=O)n(C)c1=O | -10%
76 | CCc1ccc(-c2nc(CN3CCCC(C(=O)NCc4ccc(C)cc4)C3)c(C)o2)cc1 (centres undefined) | -18%
77 | CCCN1CCN(C(=O)c2cc(COc3ccc4ncccc4c3)on2)CC1 | 7%
78 | COc1ccc(-n2c(=S)[nH]c3cc(C(=O)Nc4ccc(F)cc4)ccc3c2=O)c(OC)c1 | 3%
79 | COc1ccc(CCNc2nc(SCc3ccccc3F)nc3ccccc23)cc1OC | 10%
80 | COc1cccc(-c2nn3c(=O)cc(CN4CCN(C(=O)/C=C/c5ccccc5)CC4)nc3s2)c1 | 10%

Taken from above.
In VDR inhibitor, entry 76 is entered as -18%
In VDR inhibitor, entry 63 is entered as 25%
In VDR inhibitor, entry 75 is entered as -10%

Continuation:
# | Compound | VDR inhibitor
81 | CCCCN1CC(=O)N2[C@H](c3ccc(OC)cc3)[C@@H]3C(=O)N(CC)C(=O)[C@@H]3[C@]2(Cc2ccccc2)C1=O | 7%
82 | Cc1[nH]c2ccccc2c1CCCO | 0%
83 | CS(=O)(=O)N(CC(=O)Nc1ccc(S(=O)(=O)N2CCCC2)cc1)c1ccccc1F | -7%
84 | O=C(CSc1nnc2ccccn12)c1ccc(OC(F)F)cc1OC(F)F | -21%
85 | CCc1c(C)nc(SCC(N)=O)c(C#N)c1C | 9%
86 | CCN1C(=NCc2ccc(OC)cc2)N[C@@H](c2ccccc2)C(C(=O)OC)=C1C | -13%
87 | CC(OC(=O)c1cccc(S(=O)(=O)Nc2ccccc2F)c1)C(=O)NCc1ccc2c(c1)OCO2 (centres undefined) | 13%
88 | O=C1CCC(O)CCN1CCSc1ccccc1 (centres undefined) | -14%
89 | O=C(COC(=O)c1ccc([N+](=O)[O-])s1)NC(c1ccccc1)c1ccccc1 | -15%
90 | O=C(Nc1ccc(Nc2ccccc2)cc1)C1CC1 | -15%
91 | CN(Cc1c(C(=O)N/N=C/c2cccc(F)c2)nnn1-c1nonc1N)C1CCCCC1 | -9%
92 | CCCN(CCC)Cc1c(C(=O)N/N=C/c2ccc(C)o2)nnn1-c1nonc1N | 9%
93 | C=CCSc1nnc(NC(=O)Cn2cnc3c2c(=O)n(C)c(=O)n3C)s1 | -8%
94 | Cc1ccc(C(=O)NCCNc2nc3cc(C)c(C)cc3cc2C)cc1 | 11%
95 | CC(=O)N1CCc2cc(S(=O)(=O)NC(CC(C)C)C(=O)NCc3ccccc3)ccc21 (centres undefined) | -8%
96 | CN(C)S(=O)(=O)Oc1ccccc1C(=O)Nc1ccccc1Cl | -10%
97 | CN1CCCC(OC(=O)COc2ccccc2)C1 (centres undefined) | 10%
98 | COc1cccc(CSCC(=O)NCCc2ccccc2)c1OC | -8%
99 | Cc1cc2nc(SCCN3CCOCC3)[nH]c2cc1C | -6%
100 | COC(=O)C1C(=O)C2=C(CC1C)NC(=O)CC2c1ccc(O)c(OC)c1 (centres undefined) | -8%
101 | CCOC(=O)CSc1cc(C)nc(NC(C)=O)n1 | 2%
102 | Cc1ccc2c(C)c(C(=O)Nc3ccc(S(=O)(=O)Nc4onc(C)c4C)cc3)oc2c1 | -28%
103 | Cn1c(=O)n(CCCOc2ccc(Br)cc2)c2ccccc21 | -11%
104 | CCc1ccc(C(=O)CN2C(=O)NC3(CCOc4ccccc43)C2=O)s1 (centres undefined) | 11%
105 | COc1ccc(-n2c(=O)c3ccc(C(=O)NCc4ccc(C)cc4)cc3n(CC(=O)Nc3ccc(F)cc3)c2=O)cc1 | -3%
106 | CN(C)CCNC(=S)NC1CCCCC1 | -11%
107 | CCCC(=O)Nc1c(C)nn(C(=O)CCC)c1C | -3%
108 | Cc1nc(OCc2c(C)noc2C)c2ccccc2n1 | 0%
109 | Cc1ccccc1C(=O)NCc1nc(-c2ccc(Cl)cc2)no1 | -2%
110 | CC(=O)c1cccc(NC(=O)Nc2ccccc2)c1 | 15%
111 | CC1=C([N+](=O)[O-])C(c2ccc(O)c(O)c2)NC(=O)N1 (centres undefined) | 1%
112 | CCOC(=O)CC(=O)CSc1n[nH]c(=O)[nH]c1=O | -2%
113 | COCCn1c(SC(C)C(=O)NC2CCCCC2C)nc2ccccc2c1=O (centres undefined) | -15%
114 | Cc1ccc(S(=O)(=O)Nc2ccc(Cl)cc2C(=O)c2ccccc2)cc1 | -20%
115 | O=C(/C(Cl)=C/Nc1ccc(Br)cn1)C(F)(F)F | -19%
116 | O=C(CCN1CCOCC1)NCC1COc2ccccc2O1 (centres undefined) | -15%
117 | Cc1ccc(-c2noc(-c3cccnc3N(C)Cc3ccc(Cl)cc3)n2)cc1 | 11%
118 | O=C(NC(NNc1ccc([N+](=O)[O-])cc1)(C(F)(F)F)C(F)(F)F)c1ccc(F)cc1 | ?

High-throughput results deposited in PubChem by National Center for Advancing Translational Sciences (NCATS).

Only part of the results is shown; the hit share may differ from the screen's.
